# Screening results as filed in PubChem BioAssay.
# NPYLR7 ag: activates Aedes aegypti NPYLR7 receptor; HEK293T NPYLR7/Galpha15, GCaMP6s calcium fluorescence; activation, % at 10 µM; 0.15% of 270,000 active; AID 1259423; in the data active means activation above about 40%;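 further: 0% = vehicle and 100% = reference agonist at the receptor; some compounds past the cut are filed as inactive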
# NPYLR7 ag max-min: second read-out of NPYLR7 ag, no call of its own (marks repeat the call); activation, %; measured here: Max-Min RFU normalised activation; some inactives read as strong as hits;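 span of the calcium signal over five minutes; 0% = vehicle and 100% = native peptide agonist; compound fluorescence can raise it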
# The depositor's hits bear a star; & = joins results of further samples. This is a subset (hit frequency here may not be typical).
SMILES,NPYLR7 ag,NPYLR7 ag max-min
CNC(=O)c1nnc2n1C(c1ccccc1)CN(Cc1cccc(C(F)(F)F)c1)C2 (stereo not given),5,3
COCCN(Cc1nc2ccccc2o1)C(=O)CCC(=O)OC,3,-1
Cn1c2c(c3ccccc31)C[C@H]1C[C@@H]2[C@@H](Oc2ccccn2)CN1CCCO,20,27
N#Cc1ccc(N2CCN(C(=O)c3ccc4c(c3)OCCCO4)CC2)nc1,3,0
Cc1cccc2nc(COC(=O)CCN3C(=O)C4CC=CCC4C3=O)cc(=O)n12 (stereo not given),18,10
CC(O)CN(CC(C)O)C(=O)c1ccccc1-c1ccc(C(F)(F)F)cc1 (stereo not given),-14,-23
CCOc1c(C)cc(S(=O)(=O)NCC2CCN(Cc3ccco3)CC2)cc1C,-5,-6
CCOc1c(Cl)cc(C(=O)Nc2nc(CN3CCC(C)CC3)cs2)cc1OC,14,13
COc1ccc(-c2nc3ccccn3c2NC(C)(C)CC(C)(C)C)cc1,2,3
CCn1nc(C(=O)N2CCCC2)c2c1CCN(Cc1cccn1-c1cccnc1)C2,0,-4
CC1Sc2ccc(C#N)cc2N(Cc2ccc(OC(F)(F)F)cc2)C1=O (stereo not given),-19,-13
Cn1nc(C(=O)NCC(C)(C)N2CCCCC2)c2ccccc2c1=O,4,7
Cc1ccc(C(=O)O)cc1NC(=O)c1cc2ccccc2oc1=O,-6,-13
CN(C)CCCn1ccc2c(nnc3c(-c4ccc(Cl)cc4)cnn32)c1=O,2,1
CCOC(=O)c1ccc(OC2CC3CCC(C2)N3C(=O)c2ccc(CSc3ccccc3C(=O)OC)cc2)cc1 (stereo not given),12,9
CCOC(=O)C1CCN(S(=O)(=O)CCCOc2cccc3c2OC(C)(C)C3)CC1,9,11
Cc1cccc(CNC(=O)C(C2CCCC2)N2CCN(C(=O)c3ccc(Cl)cc3Cl)CC2)c1 (stereo not given),-4,1
CCCc1nc(C(=O)N2CCc3c(nc(N(C)C)nc3N(C)C)C2)cs1,-5,-4
Cc1cc(NS(=O)(=O)/C=C/c2ccccc2)n(C)n1,6&7,6&4
O=C(N=Nc1c(O)[nH]c2ccccc12)c1ccccc1Br,-2,-2
COC[C@H]1C[C@H]2C[C@@H](Oc3ccccn3)[C@H](N3CCc4ccccc4C3)[C@]2(O)CO1,3,4
c1ccc(CCc2noc([C@H]3CCCO3)n2)cc1,11,2
COc1cc(-c2nnc(CSc3nnc(-c4ccco4)n3C)o2)cc(OC)c1OC,15,13
CCOC(=O)Nc1sc(C(=O)OC(C)C)c(C)c1C(N)=O,6,2
Cc1cc(C)c(NC2=NC3CS(=O)(=O)CC3S2)c(C)c1 (stereo not given),-1,-1
Cc1cccc(CSc2nnc(N)s2)c1,1&1,-3&7
CS(=O)(=O)Oc1ccc(/C=C2/C(=N)N3N=C(C(F)(F)F)SC3=NC2=O)cc1Cl,0,-1
COc1cc(NC(=O)Cc2cccc(F)c2)ccc1N1CCCC1=O,-1,-2
Cc1oc2c(c1C(=O)N1CCCC(N(C)CCN(C)C)C1)C(=O)CCC2 (stereo not given),5,3
O=C(CCS(=O)(=O)c1ccccc1)N(Cc1cccnc1)c1nc2cc3c(cc2s1)OCCO3,-15,-10
CCOCCC(=O)N1CCN(Cc2ccc(-c3noc(COC)n3)cc2)CC1,12,17
O=C(c1cccs1)N1CCN(c2nc3nonc3nc2N2CCCCCC2)CC1,-1,-3
Cc1ccc(OC(C)C(=O)N2CCC(c3n[nH]c(=S)o3)CC2)cc1 (stereo not given),1,-4
CC(C)Oc1nc(-c2cccc(F)c2)n(-c2cccc(NC(=O)C(C)C)c2)n1,12,21
O=c1[nH]c(=S)[nH]c2c1C(c1cccc([N+](=O)[O-])c1)c1c([nH]c(=S)[nH]c1=O)O2,5&-1,6&11
Cc1cc(NC(=O)c2ccco2)sc1C(=O)N1CCN(c2cnccn2)CC1,4,0
COc1ccc(C(=O)N2CCCC(C(=O)c3ccc(SC)cc3)C2)c(OC)n1 (stereo not given),6,-4
NC(=O)C1CCN(C(=O)c2cc3c(=O)n4ccccc4nc3s2)CC1,-5&7,-5&3
COc1ccccc1CN(Cc1ccc(F)cc1)Cc1nc(C(=O)NCC2CC2)co1,28,30
CC(O)CCN(C)S(=O)(=O)c1ccccc1-c1ccccc1 (stereo not given),0,-1
CC(=O)C1=C(c2ccc3c(c2)CCCC3)N(C(C)=O)n2cnnc2S1,0,-2
Cc1ccc(CCC(=O)NCCCN2CCCCC2)cc1Cl,3,0
COc1ccc(C)cc1NC(=O)c1ccc2c(c1)CCC2,1,2
O=C(COc1cccc(Cl)c1Cl)N1CCN(S(=O)(=O)c2ccccc2)CC1,-3,-5
O=C(COCc1ccccc1)N1CCC(n2nc(-c3ccccc3)cc2-c2ccccc2)CC1,-7,-12
COc1ccc(S(=O)(=O)N2CCN(C(=O)NC(c3ccccc3)C3CC3)CC2)cc1[N+](=O)[O-] (stereo not given),12,17
COc1ccc(C(C)=O)cc1Cn1c(C)c(C(=O)NCc2cccc(C(F)(F)F)c2)sc1=O,-10,-2
O=S(=O)(c1cccs1)N1CCN(C(c2ccc(F)cc2)c2ccc(F)cc2)CC1,15,10
OC12CC3CC(CC(C3)C1)C2,-2,-3
O=C(Cn1cnc2sccc2c1=O)Nc1ccc2c(c1)OCCO2,4,3
COC(c1ccc2c(c1)CN(C(=O)Cn1nc(C)c3ccccc3c1=O)CCO2)C1CCCCC1 (stereo not given),-4,-11
CCCn1c(=O)c2c(nc3n2CC(C)=NN3CCOC)n(C)c1=O,9,6
CCN(CC)S(=O)(=O)c1ccc(OC)c(N2CCN(S(=O)(=O)c3ccc(F)cc3)CC2)c1,3,0
CC1=CC(=NNC(=S)Nc2ccc(F)cc2)CC1,2,-4
CN(C)c1ccc(CN2CCC(Cc3ccc(-n4cccc4)cc3)CC2)c2ccccc12,4,5
CC1CCCCN1CCCNC(=O)c1cc2n(n1)CCN(Cc1ccccc1F)C2=O (stereo not given),12,9
CCCCCCCCCCC(=O)Nc1nc2ccc(OC)cc2s1,-12,-19
O=c1c2nnn(-c3ccc(Br)cc3)c2ncn1Cc1ccccn1,-4,-9
CCc1noc(C)c1C(=O)N1Cc2cc(C)ccc2OC(c2ccsc2)C1 (stereo not given),1,1
CCN1CCCC1CNC(=O)c1ccc(-c2cc(-c3ccc(Cl)cc3)[nH]n2)cc1 (stereo not given),1,10

# (further entries)
SMILES,NPYLR7 ag,NPYLR7 ag max-min
CCC(C)NC(=O)c1cc(NC(=O)Nc2cccc(Cl)c2)ccc1N1CCN(c2ccccc2OC)CC1 (stereo not given),1,11
CCC(C)NCc1ccc(N(CC)CC)cc1OS(=O)(=O)CC (stereo not given),18,13
COc1ccccc1OCC(=O)Oc1coc(CSc2nc(C)cs2)cc1=O,-8,-8
Cc1ccsc1C(O)c1nnc(Nc2cccc(OC(F)(F)F)c2)s1 (stereo not given),6,4
CC1CN(c2ccc(NC(=O)N(C)Cc3ccccc3)cc2)CCO1 (stereo not given),-1,-1
COc1ccc(NC(=S)NN(C)C(=S)Nc2ccc(OC)cc2)cc1,7,5
CCc1ccc(-c2nccn2CC2CC(=O)N(C(C)C)C2)o1 (stereo not given),0&-1,1&-4
CC(C)c1ccc(NC2CCCN(C(=O)c3cnc4ccccc4c3)C2)cc1 (stereo not given),-5,-8
Cc1nc2ccc(CN(C)c3ccc(C(=O)N[C@@H](CCC(=O)O)C(=O)O)s3)cc2c(=O)[nH]1,-7&-6,-9&-17
COc1ccc(-n2ncc(Oc3ccc4c(c3)CCC4)c(Nc3cccc(C(=O)NCCc4ccccn4)c3)c2=O)cc1,12,13
Cc1ccccc1Oc1cc(N2CCC(Cc3ccccc3)CC2)ncn1,7,11
CSc1cccc(CN2CCCC(CO)(Cc3ccccc3)C2)c1 (stereo not given),8,7
Cc1nc2cc(C(F)(F)F)ccc2n1C1CCN(C(=O)CCOc2ccccc2)CC1,3,0
CC1CN(S(=O)(=O)c2ccc(C(=O)NNc3nc4cc5c(cc4s3)OCO5)cc2)CC(C)O1 (stereo not given),0,-2
COc1ccc(NS(=O)(=O)N(C)C(C)C)cc1Br,1,94
Cc1ccc(CNCc2nc(N(C)C)n(-c3ccccc3)c2Cl)cc1,10,8
Cc1ccnc(N2CCN(c3ncnc4scc(-c5ccc(F)cc5)c34)CC2)c1,7,6
CCCCCCc1ccc(C(=O)N(CCCOCC)Cc2nc(C(=O)OC)cs2)cc1,21,25
CC1Sc2ccc(C(=O)NCc3ccccc3F)cc2NC1=O (stereo not given),1,-1
CN1CCN2CCN(C(=O)CCOc3ccccc3)CC2C1=O (stereo not given),3,1
CCNC(=O)N1CCN(c2nc(-c3ccccc3)nc(C)c2Cc2ccccc2F)CC1,3,12
O=C(NC(c1ccc(F)cc1)c1ccc2ccccc2n1)C1CCN(Cc2cccs2)CC1 (stereo not given),-10,-10
Cc1cc2nc(N(Cc3ccccn3)C(=O)c3ccc(S(C)(=O)=O)cc3)sc2cc1C,3,-8
COCCNC(=O)Cn1cc(OC)c(=O)cc1CN1CCN(c2ccc(F)cc2)CC1,3,0
COc1cccc(CNC(=O)C2CCN(C(=O)[C@@H](Cc3ccccc3)NC(=O)COc3ccccc3)CC2)c1,-8,-2
O=C1CCCN1c1ccc(Cn2nc3ccc(-c4ccccc4)nn3c2=O)cc1,14,6
COc1ccc(-c2cc(C(=O)NCCc3ccccn3)nc3c(-c4ccccc4)c(C)nn23)cc1,5,19
c1ccc(Nc2nc(NCc3ccc4c(c3)OCO4)nc3nccnc23)cc1,7,12
c1ccc2nc(N3CCCC(Nc4ccc5c(c4)OCCO5)C3)cnc2c1 (stereo not given),18,7
CCCN(CC1CCCO1)C(=O)CC1(c2ccccc2Cl)CC(=O)N(CCOC)C1=O (stereo not given),18,12
COc1ccccc1N=C(Nc1ccccc1OC)SC,6,-1
CCc1ccc(-c2csc(NC(=O)c3ccco3)n2)cc1,3,6
CCOC(=O)c1c(C)nn(-c2ccc(C(=O)Nc3ccccc3OC)cc2)c1C,5,2
Cc1cc(=O)[nH]c(-n2nc(C)c(CCC(=O)N3CCC(C(N)=O)CC3)c2C)n1,3,-1
COc1ccc(C(=O)N2CCN(c3ncccc3C(=O)NCC3CCCO3)CC2)c(OC)c1 (stereo not given),0,8
CCCc1nc(C)sc1C(=O)Nc1ccc(C(C)(C)C)cc1,-17,-26
COc1ccc(C2NC(=S)N(c3ccc(C)cc3)C(C)=C2C(=O)Nc2cc(C)on2)cc1O (stereo not given),0,49
O=C(NCC1CCCO1)c1csc(Nc2ccc(OC(F)F)cc2)n1 (stereo not given),11,-1
CCOc1ccccc1C(=O)Oc1cc(C)[nH]c(=O)c1[N+](=O)[O-],2,2
CCOC(=O)c1cnc[nH]1,-1,4
O=C(NCc1cccs1)c1cncn1-c1cccc(-c2cccc(Cl)c2)c1,22,27
COc1ccc(CCN2C(=O)CC(C(N)=O)SC2=Nc2ccccc2)cc1 (stereo not given),-8,-10
COc1ccc(S(=O)(=O)Nc2ccc3c(c2)-c2nc(C)sc2CC3)c(OC)c1,12,11
Cn1c(C2CCN(S(C)(=O)=O)CC2)nn(Cc2c(F)cccc2Cl)c1=O,-3,5
Cc1occc1C(=O)Nc1nc2ccc(S(C)(=O)=O)cc2s1,1,-1
Cc1nc(CN(C)C(=O)c2oc(COc3ccccc3)cc2C)no1,6,5
CCOC(=O)C1(Cc2cccc(OC)c2)CCCN(C(=O)c2csc(SC)n2)C1 (stereo not given),9,1
Cc1ccc(C(=O)COC(=O)CNC(=O)CN2C(=O)c3ccccc3C2=O)cc1,1,6
COc1ccc(-c2nn(Cc3cc(OC)cc(OC)c3)c(=O)c3nc(C)sc23)cc1,-1,-4
Cc1ccc(CN(C)C(=O)C2CCN(S(=O)(=O)c3cccs3)CC2)c(C)c1,-4,-6
Cn1nnnc1N1CCCC2CN(CCC(N)=O)CC21 (stereo not given),0,-1
COc1ccccc1-n1ccc2c(cnc3ncnn32)c1=O,3,3
CCOc1coc(C(=O)Nc2c(C)cc(C)cc2C)cc1=O,10,3
Cc1cc(-c2cc(NCC(=O)O)nc3[nH]ccc23)c2ccccc2n1,5,4
O=C(C1CCC1)N1CCSC1c1cccc(Cl)c1Cl (stereo not given),-9,-9
CC(NC(=O)c1csc(COc2ccccc2F)n1)c1ccccc1 (stereo not given),-5,0
